VCAM-1 up – enhancers of VCAM-1 display on endothelial cells, cell-based, plate reader, pooled HUVEC, TNFa stimulus (AID 455). HUVEC TNFa-induced VCAM-1 immunofluorescence, plate reader; numbers were filed only for top-ranked candidate wells. 0.2% of 10,000 active. augmentation, % at 5 µM;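 active = a compound raising TNF-alpha-driven VCAM-1 surface staining, with its hit status upheld on visual or statistical review; inactive = the rest, including hits rejected on review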;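 also: 0% = TNFa with vehicle and 100% = strongest image-checked hit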
26S disassembly – inhibitors of ATP-driven 26S proteasome dissociation, primary screen, biochemical, bead-based flow cytometry, GFP-tagged proteasome; inhibition of disassembly, % (concentration not given with the values); anti-FLAG beads, GFP-proteasome disassembly; AID 751, 2007; 0.2% of 24,000 active;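 active = above 40%; inconclusive = likely self-fluorescent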;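 also: plate controls were ATP control with full disassembly for no effect and ATP-gamma-S intact proteasomes for full effect; higher percent means more bead fluorescence retained so stronger block of disassembly; stock transfer was 100 nL into about 10 µL; wells with too few beads may also be inconclusive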
The depositor's hits bear a star; i = inactive; ? = inconclusive; nt = no result given. These rows are one share of the data; count on the stated rates, not on these rows.

SMILES	VCAM-1 up	26S disassembly
O=C(NCc1ccc2c(c1)OCO2)c1ccc(CS(=O)(=O)c2ccc(Br)cc2)o1	nt	-0.6
CCCS(=O)(=O)N1CCCC(C(=O)NC(C)c2ccc3c(c2)OCCO3)C1 (stereo unspecified)	i	-0.2
O=C(CCCNS(=O)(=O)c1cccc2nsnc12)NC1CCCCC1	nt	0.9
O=C(NCc1ccc2c(c1)OCO2)C1CCCN(S(=O)(=O)c2cccnc2)C1 (stereo unspecified)	i	1.5
CCCC(=O)N(c1ccc2oc(=O)sc2c1)S(=O)(=O)c1ccccc1	i	1.9
O=C1C2CCCN2C(c2ccc(Cl)cc2)N1c1nccs1 (stereo unspecified)	i	1.9
CC(NC(=O)c1cccs1)C(c1cccs1)N1CCOCC1 (stereo unspecified)	nt	-1.4
CCOC(=O)N1CCC(N(CCCOC)C(=O)Nc2ccc(CC)cc2)CC1	i	-1.2
Cc1ccc(CNC(=O)c2oc3ccc(S(=O)(=O)N4CCC5(CC4)OCCO5)cc3c2C)cc1	nt	-0.6
Cc1ccc(C(=O)Nc2nccs2)cc1S(=O)(=O)N1CCCCC1	nt	1.5
Nc1ccc2oc(CCc3ccccc3)nc2c1	nt	0.0
O=C(CCNS(=O)(=O)c1cccc2nsnc12)N1CCN(c2ccccn2)CC1	nt	-1.2
O=C(Cn1nc(Cc2ccncc2)c2ccccc2c1=O)N1CCN(C(=O)c2ccco2)CC1	i	-0.9
Cn1cccc1Cc1nnc(SCC(=O)NC2CCCCC2)n1CCc1ccccc1	nt	3.2
Cn1c(=O)n(C)c2cc(CN3C(=O)OC(C)(C)C3(C)O)ccc21 (stereo unspecified)	nt	-0.4
O=C(NCc1ccco1)C1CCCN(S(=O)(=O)c2cnc[nH]2)C1 (stereo unspecified)	nt	1.3
COc1ccc(CCNC(=O)c2ccc3c(=O)n(Cc4ccco4)c(=S)[nH]c3c2)cc1OC	nt	-3.2
COc1ccc(N(C(=O)c2ccccc2OC)C2C=CS(=O)(=O)C2)c(OC)c1 (stereo unspecified)	nt	-0.3
O=C(Nc1ccc2nn(-c3ccccc3)nc2c1)c1ccc(Br)o1	i	4.6
COc1ccccc1-n1nc(C(=O)Nc2ccc3c(c2)OCO3)c2ccccc2c1=O	nt	0.0
CCOC(=O)CSc1nc(-c2ccc(OC)cc2)ns1	nt	0.7
COc1cccc(C2CC(c3ccccc3)Nc3nc(N)nn32)c1 (stereo unspecified)	nt	1.1
Cc1ccc(NC(=O)C2CCCN(S(=O)(=O)c3cnc[nH]3)C2)cc1F (stereo unspecified)	i	0.7
O=C(NCCCN1CCOCC1)C1CC(=O)N(CCc2ccccc2)C1 (stereo unspecified)	i	0.6
CN1CCN(c2ccccc2NC(=O)Cc2cn(C)c3ccccc23)CC1	nt	-2.8
O=C(NCCCn1ccnc1)c1noc2c1CCCC2	nt	-0.5
Cc1ccc(CNC(=O)Nc2cccs2)cc1	nt	-0.1
COC(=O)c1ccc2c(=O)n(CCN3CCOCC3)c(SCC(=O)c3ccccc3)nc2c1	nt	0.8
CC(C)c1nnc(NC(=O)C2CCCCC2)s1	i	-0.7
C#CCNc1c(C)c(C)nc2ncnn12	i	0.3
CCC(=O)N1c2ccc(S(=O)(=O)N(CCO)Cc3ccccc3)cc2CC1C (stereo unspecified)	nt	-0.9
CCOc1ccc(OCC)c(NC(=O)CCn2c(=O)oc3ccccc32)c1	nt	-1.1
Cc1cc(N2CCOCC2)nc2ccc(NC(=O)CCC(=O)N3CCCC(C)C3)cc12 (stereo unspecified)	nt	0.0
CCn1cc(S(=O)(=O)CC(=O)Nc2cc(C)on2)c2ccccc21	nt	5.8
CN1CCN(Cc2nc3c(c(=O)[nH]c(=O)n3C)n2CCc2ccccc2)CC1	i	2.7
COCCn1c(=O)[nH]c2cc(C(=O)NCc3cccnc3)ccc2c1=O	i	-0.6
Cc1ccc(CCNC(=O)Cn2cccc2)cc1	i	-0.7
CC(C)COC(=O)C1[C@H]2C(=O)N(Cc3cccs3)C[C@]23C=C[C@H]1O3 (stereo partly specified)	i	-2.6
CCOc1ccccc1NC(=O)CCN1CCN(S(=O)(=O)c2ccc(OC)cc2)CC1	nt	0.2
COc1ccc(C2N(c3ccccn3)C(=O)C3CCCN32)c(OC)c1 (stereo unspecified)	nt	-3.0
CC(C)Cc1nc(S(=O)(=O)c2ccc(Cl)cc2)c(N2CCOCC2)o1	i	-1.7
CCOC(=O)N1CCC(NC(=O)c2ccc(CS(=O)(=O)c3ccccc3C)o2)CC1	nt	-1.3
O=C(CSc1nnc(-c2ccc(Br)o2)n1Cc1ccccc1)c1ccccc1F	i	2.8
COc1cccc(-n2c(Cc3cc(=O)[nH]c(=O)[nH]3)nnc2SCC(=O)NC2CCCCC2)c1	nt	-0.8
Cc1nc(C)c(C(=O)Nc2ccccc2-c2ccccc2)o1	nt	3.1
O=C(Cn1c(=O)oc2cc(S(=O)(=O)N3CCCC3)ccc21)NCc1ccccn1	nt	0.1
Cc1cc(C)cc(N2C(=O)CC(N3CCOCC3)C2=O)c1 (stereo unspecified)	i	-1.5
COc1ccc(C)cc1NC(=O)CN(Cc1nnc(-c2ccc(Cl)cc2)o1)C1CCCC1	i	1.2
CCc1nnc(NC(=O)OCc2ccccc2)s1	i	1.5
Cc1ccc(C)c(C2=CSC3=NCCN23)c1	nt	-2.9
CCn1ncc(Br)c1C(=O)Nc1cc(C(=O)OC)ccc1C(=O)OC	nt	0.8
O=S(=O)(c1ccc2c(c1)OCCO2)N1CCN(Cc2ccc3c(c2)OCO3)CC1	i	-0.3
O=C(O)C1CCCCC1C(=O)NCCCN1CCOCC1 (stereo unspecified)	nt	-1.2
COC(=O)CNc1nc(-c2ccccc2F)nc2ccccc12	nt	-1.7
CCOc1ccc(-c2cc3nc(C4CCN(C(=O)OC(C)(C)C)CC4)c(C(=O)O)cn3n2)cc1	nt	-0.2
COc1ccc(CN2CCN(C(=O)C3CC(=O)N(C4CCCCCC4)C3)CC2)c(OC)c1OC (stereo unspecified)	nt	-0.9
CC1(C)CC(=O)N(CC(=O)N2CCN(c3ncccn3)CC2)c2ccccc2S1(=O)=O	nt	-0.3
CCOC(=O)N1CCC(NC(=O)c2cccc3c2C(=O)N(Cc2cccnc2)C3)CC1	nt	-2.1
COc1ccc(C(=O)CSc2nnc(-c3ccc(C)cc3)o2)cc1	i	-2.5
CCn1cc(C(=O)NCC2CCCO2)c(=O)c2cc(S(=O)(=O)N(C)C)ccc21 (stereo unspecified)	i	0.7

Continued:
SMILES	VCAM-1 up	26S disassembly
Cn1cccc1Cc1nnc(SCC(=O)NCC2CCCO2)n1CCc1ccccc1 (stereo unspecified)	nt	-0.7
Cc1ccc2[nH]c(=O)c(CN(CCCN3CCOCC3)C(=O)Nc3cccc(Cl)c3)cc2c1	i	4.0
COc1ccccc1CN1CC(C(=O)NCC2CCCO2)CC1=O (stereo unspecified)	nt	-1.5
O=C1NC(=O)C(c2ccccc2)(c2ccccc2)N1	i	0.6
CCCC(O)(CCN(C)C)c1ccc(OC)cc1 (stereo unspecified)	i	-0.3
COc1cccc2cc3c(=O)n(-c4ccccc4)nc-3oc12	nt	0.5
CC(=O)Nc1nonc1NC(=O)CSc1ccccn1	nt	-0.7
COc1ccc(-c2nc3ncccn3c2Nc2ccc3c(c2)OCCO3)cc1	nt	0.2
Cc1cc(C)cc(N2C(=O)C3C4C=CC(C4)C3C2=O)c1 (stereo unspecified)	i	0.5
CCC(C)(C(=O)NC1CCCC1)N(Cc1ccco1)C(=O)c1ccccn1 (stereo unspecified)	nt	0.7
O=C(COC(=O)C1CCN(S(=O)(=O)c2cccs2)CC1)c1cc2ccccc2o1	i	?
O=C(c1ccccc1Oc1nnnn1-c1ccccc1)N1CCOCC1	i	-0.8
CC(=O)NCCn1c(SCC(=O)OCc2ccccc2)nc2ccccc2c1=O	nt	2.9
CCC(C)(C(=O)NC1CCCC1)N(C(=O)c1cnccn1)c1c(C)n(C)n(-c2ccccc2)c1=O (stereo unspecified)	i	-0.8
COC(=O)c1c(C)oc(C)c(C(=O)OC)c1=O	nt	2.1
COc1cccc(CNC(=O)CCNS(=O)(=O)c2cccs2)c1	nt	0.0
O=c1/c(=C/c2cccc3ccccc23)sc2ncnn12	nt	-1.0
CN(C(=O)C(Cl)Cl)c1ccc(OC(=O)c2ccco2)cc1	i	0.3
COCCN1Cc2cccc(C(=O)Nc3c(C)cc(C)cc3C)c2C1=O	nt	0.1
CC(=O)/C(C[N+]1(C)CCCCC1)=N\O	i	-1.7
Cc1noc(C)c1S(=O)(=O)N1CCCC(C(=O)NCCC2=CCCCC2)C1 (stereo unspecified)	nt	18.7
COc1cccc(NC(=O)CSc2nc3n[nH]c(C)c3c(=N)n2-c2cccc(OC)c2)c1	nt	-1.2
CCc1cccc(NC(=O)Nc2cccs2)c1	nt	0.1
C=CCNC(=O)C1CC(c2cccc(OC)c2)=NO1 (stereo unspecified)	nt	0.4
COc1ccc(N2CSC3=C(C#N)C(c4ccc(OC)c(OC)c4)CC(=O)N3C2)c(OC)c1 (stereo unspecified)	nt	0.2
CCOc1ccc(N(CC(=O)N2CCN(c3ccccc3)CC2)S(=O)(=O)c2c(C)noc2C)cc1	nt	-2.0
COCCn1c(COc2ccc(C)cc2)nc2ccccc21	nt	0.6
CC1=C(C(N)=O)C(c2ccccc2)n2nc(-c3ccncc3)nc2N1 (stereo unspecified)	nt	1.4
O=C(CNC(=O)c1ccccc1)NC1(C(=O)NC2CCCC2)CCCCC1	nt	0.1
COc1ccc(N2CCN(C(CNC(=O)C3CCCCC3)c3cccnc3)CC2)cc1 (stereo unspecified)	nt	3.1
COc1cccc(NC(=O)Nc2cccs2)c1	i	1.7
COc1ccc(CNC(=O)C2CCCN(S(=O)(=O)c3cnc[nH]3)C2)cc1 (stereo unspecified)	nt	-0.7
COC(=O)c1[nH]c2ccc(C)cc2c1NC(=O)CN1CCC(C)CC1	i	1.3
O=C(Cc1ccc(S(=O)(=O)N2CCCC2)s1)Nc1nc2c(s1)CCCC2	i	2.5
O=C(CSc1nnc(-c2ccccc2)c(-c2ccccc2)n1)N1CCOCC1	i	0.8
CC(=O)c1ccc(Oc2cc(C)nc(-n3nc(C)cc3C)n2)cc1	i	-0.3
COc1cccc(-n2c(SCC(=O)NC3CCCCC3)nc3n[nH]c(C)c3c2=N)c1	nt	-0.1
O=C(c1ccccc1)c1cccn1CC(=O)N1CCN(c2ccc(F)cc2)CC1	nt	-0.8
CCOC(=O)N1CCN(C(=O)Cn2cc3c(n2)CCCC3)CC1	nt	-2.2
CC(=O)Nc1ccc(NC(=O)Cn2cc3c(n2)CCC(C)C3)cc1 (stereo unspecified)	i	1.6
CC(=O)N1CCc2cc(S(=O)(=O)NC(C(=O)Nc3ccc4c(c3)OCCO4)C(C)C)ccc21 (stereo unspecified)	nt	-0.9
Cc1cc(C(C)(C)C)c(O)c(C)c1CC1=NCCN1	i	2.0
COc1ccc(CN2CC(C(=O)NCCCN3CCN(C)CC3)CC2=O)cc1 (stereo unspecified)	nt	-1.6
CCCn1c(=N)n(CC(=O)c2cccs2)c2ccccc21	i	0.1
CCOC(=O)c1cc2c(=O)n3ccccc3nc2n(CCCOC)c1=NC(=O)C(C)(C)C	i	?

For reference, part of the list above.
SMILES	VCAM-1 up	26S disassembly
O=C(NCc1ccc2c(c1)OCO2)c1ccc(CS(=O)(=O)c2ccc(Br)cc2)o1	nt	-0.6
CCCS(=O)(=O)N1CCCC(C(=O)NC(C)c2ccc3c(c2)OCCO3)C1 (stereo unspecified)	i	-0.2
O=C(CCCNS(=O)(=O)c1cccc2nsnc12)NC1CCCCC1	nt	0.9
O=C(NCc1ccc2c(c1)OCO2)C1CCCN(S(=O)(=O)c2cccnc2)C1 (stereo unspecified)	i	1.5
CCCC(=O)N(c1ccc2oc(=O)sc2c1)S(=O)(=O)c1ccccc1	i	1.9
O=C1C2CCCN2C(c2ccc(Cl)cc2)N1c1nccs1 (stereo unspecified)	i	1.9
CC(NC(=O)c1cccs1)C(c1cccs1)N1CCOCC1 (stereo unspecified)	nt	-1.4
CCOC(=O)N1CCC(N(CCCOC)C(=O)Nc2ccc(CC)cc2)CC1	i	-1.2
Cc1ccc(CNC(=O)c2oc3ccc(S(=O)(=O)N4CCC5(CC4)OCCO5)cc3c2C)cc1	nt	-0.6
Cc1ccc(C(=O)Nc2nccs2)cc1S(=O)(=O)N1CCCCC1	nt	1.5
Nc1ccc2oc(CCc3ccccc3)nc2c1	nt	0.0
O=C(CCNS(=O)(=O)c1cccc2nsnc12)N1CCN(c2ccccn2)CC1	nt	-1.2
O=C(Cn1nc(Cc2ccncc2)c2ccccc2c1=O)N1CCN(C(=O)c2ccco2)CC1	i	-0.9
Cn1cccc1Cc1nnc(SCC(=O)NC2CCCCC2)n1CCc1ccccc1	nt	3.2

Further entries follow.
SMILES	VCAM-1 up	26S disassembly
Cc1cccc(CCNC(=O)C2CCC(CNc3c(N4CCCC4)c(=O)c3=O)CC2)c1 (stereo unspecified)	nt	0.1
CN(C)CCNC(=O)Cc1c(C(=O)O)n(C)c2ccccc12	nt	1.4
COc1ccc2cc(C(c3nnnn3C3CCCCC3)N3CCCCCC3)c3nnnn3c2c1 (stereo unspecified)	i	-0.5
COc1ccccc1NC(=O)c1nnn(CC(=O)Nc2cccc(SC)c2)c1N	nt	0.2
Cc1cc(S(=O)(=O)N2CCN(c3ncccn3)CC2)ccc1-n1cnnn1	i	-7.9
COc1ccccc1N1CCN(C(=O)c2ccc(CS(=O)(=O)c3ccccc3OC)o2)CC1	i	-0.2
O=C(COc1ccc(Cl)cc1)Nc1nc(-c2cccs2)cs1	i	2.8
Cc1cccc(-n2nnc(C(=O)NCc3ccccn3)c2N)c1	nt	-1.2
CCN(C#N)c1nc(NC(C)C)nc(NC(C)C)n1	i	1.6

Screening results: PubChem, several laboratories
